# CCT modulator: modulators of cytosolic chaperonin (CCT/TRiC) activity. AID 651819. actives 0.3% (n = 360,000). purified chaperonin ATPase assay, HTRF ADP detection, 30 min. activity change, % (no concentration beside the values), hits read low; in the data active means activity change below about -30%; further: on the % scale 0 is the no-effect control and ±100 the full control effect
#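 TRiC at 40 or 20 nM final (batch-dependent) in 30 mM Tris pH 7.4, 100 mM KCl, 5 mM MgCl2, 1 mM DTT, with compound at single 76 uM and 10 uM ATP, 30 min at 37 deg C. ADP detected by HTRF Transcreener, 665/615 ratio.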
# EPAC1 antagonist: blocks human EPAC1 exchange factor; O95398; Potency, µM (doses to about 115 µM), without a hit: at the highest dose activity change, negative = inhibition, actives largely listed as inhibitors; actives 0.14% (n = 360,000); AID 720709; EPAC1 GEF assay, Rap1b-BODIPY-GDP exchange fluorescence;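 further: potency means the concentration at half of the fitted maximal effect; plate controls were vehicle for no effect and positive control for full effect; nearly all actives have a fitted effect of over 50% in size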
# EPAC1 ag: agonists of human EPAC1; O95398; EPAC1 agonist qHTS, biochemical assay; response scale: 100% = response to 6.5 mM cAMP; Potency, µM (doses to about 154 µM), inactives show top-dose activation, usual class: activators; actives 0.073% (n = 360,000); AID 720707; further: potency means the concentration at half of the fitted maximal effect; nearly all actives have a fitted effect of over 60% in size
#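 Nucleotide exchange assay: 100 nM EPAC1 with 250 nM Rap1B loaded with BODIPY-GDP and 50 uM GDP, room temperature. Fluorescence (480/540 nm) read every 5 min for 30 min; signal change normalized to 6.5 mM cAMP as full agonist.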
# PLK1 PBD inh: inhibitors of human PLK1 polo-box domain binding; P53350; Plk1 PBD binding of FITC phosphopeptide, fluorescence polarization; Potency, µM, for inactives: max response, negative = inhibition, most hits filed as inhibitors; actives 2.8% (n = 360,000); AID 720504; further: potency means the concentration at half of the fitted maximal effect; series mostly up to about 57 µM; on the % scale 0 is the no-effect control and ±100 the full control effect; nearly all actives have a fitted effect of over 65% in size
# Target sequence (P53350 whole entry, looked up, the tested form may be a part): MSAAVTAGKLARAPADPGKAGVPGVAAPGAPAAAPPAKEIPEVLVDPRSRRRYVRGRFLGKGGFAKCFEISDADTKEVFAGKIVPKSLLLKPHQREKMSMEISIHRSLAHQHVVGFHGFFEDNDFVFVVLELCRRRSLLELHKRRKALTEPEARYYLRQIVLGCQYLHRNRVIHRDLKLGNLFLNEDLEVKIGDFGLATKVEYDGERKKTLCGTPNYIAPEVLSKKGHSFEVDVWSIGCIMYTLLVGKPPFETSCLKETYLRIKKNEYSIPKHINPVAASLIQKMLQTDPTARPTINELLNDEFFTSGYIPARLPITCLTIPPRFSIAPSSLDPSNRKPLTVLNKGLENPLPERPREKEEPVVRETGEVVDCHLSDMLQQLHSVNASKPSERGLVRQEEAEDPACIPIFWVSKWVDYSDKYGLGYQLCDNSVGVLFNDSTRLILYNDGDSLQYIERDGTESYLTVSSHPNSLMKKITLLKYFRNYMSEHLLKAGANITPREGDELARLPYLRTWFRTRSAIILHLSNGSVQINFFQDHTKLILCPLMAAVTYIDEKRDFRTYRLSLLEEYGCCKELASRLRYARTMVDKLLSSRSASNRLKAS
# MmCpn inh: M. maripaludis TRiC chaperonin inhibition | purified Mm-Cpn ATPase, ADP Transcreener TR-FRET | Potency, µM (doses to about 76.9 µM), for the others: at the highest dose activity, negative = inhibition, actives largely listed as inhibitors | actives 0.031% (n = 330,000) | AID 504842; further: potency means the concentration at half of the fitted maximal effect; on the % scale 0 is the no-effect control and ±100 the full control effect; nearly all actives have a fitted effect of over 80% in size
#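 Measured: ADP formation by purified Mm-CPN. Conditions: 25 nM protein, 10 uM ATP, Tris pH 7.4 with Mg2+, K+ and DTT, 37°C for 30 min. Detection: Transcreener HTRF after 30 min at room temperature.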
# EPAC2 antag: EPAC2 (human) antagonism; Potency, µM (top dose mostly 114 µM), inactives show at the top dose activity, negative = inhibition, hits mostly inhibitors; Q8WZA2; AID 720708; EPAC2 GEF exchange of Rap1B-BODIPY-GDP, fluorescence; actives 0.18% (n = 360,000); further: potency means the concentration at half of the fitted maximal effect; on the % scale 0 is the no-effect control and ±100 the full control effect; nearly all actives have a fitted effect of over 45% in size; many of its hits are not listed in these tables
# PI5P4K alpha inh: blocks human PI5P4K alpha kinase activity; AID 652105; max response, %; actives 1.2% (n = 330,000); PI5P4Kalpha enzyme, ADP-Glo luminescence, 60 min; stronger effect = lower value; P48426; active means max response of -50% or lower; inconclusive means between -30% and -50%; inactive means -30% or higher; further: value at the top dose of about 77 µM; on the % scale 0 is the no-effect control and ±100 the full control effect
# Target sequence (P48426 whole entry, looked up): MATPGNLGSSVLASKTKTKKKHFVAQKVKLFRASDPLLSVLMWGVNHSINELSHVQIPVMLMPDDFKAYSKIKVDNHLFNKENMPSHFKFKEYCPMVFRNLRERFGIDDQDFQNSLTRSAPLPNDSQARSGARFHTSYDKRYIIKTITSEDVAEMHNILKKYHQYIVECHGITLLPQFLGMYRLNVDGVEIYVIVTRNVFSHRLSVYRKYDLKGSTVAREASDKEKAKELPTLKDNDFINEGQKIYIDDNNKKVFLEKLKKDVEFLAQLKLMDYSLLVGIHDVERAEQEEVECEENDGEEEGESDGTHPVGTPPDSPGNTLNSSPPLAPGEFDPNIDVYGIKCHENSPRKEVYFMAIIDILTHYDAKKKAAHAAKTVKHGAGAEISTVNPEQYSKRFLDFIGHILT
#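 qHTS, 1536-well: enzyme/substrate mix, compound by pin tool, 5 microM ATP final; RT 60 min; ADP-Glo reagents 1 (45 min) then 2 (30 min); luminescence.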
# * hit, by the source's call; ? = inconclusive; nt = no result given; [ ] = dose if it differs, or a comment. Unless noted, the call rests on the fitted dose curve; in most records, active means well fitted curve in the direction sought with a large enough effect; inconclusive means small, poorly fitted or top-dose-only effect, or another doubt; inactive means no such curve, though single readings can be large; an effect the other way counts as inactive or inconclusive.
# Preview:
SMILES,CCT modulator,EPAC1 antagonist,EPAC1 ag,PLK1 PBD inh,MmCpn inh,EPAC2 antag,PI5P4K alpha inh
NC(=O)CN1C(=O)/C(=c2\sc3nc(=O)c(Cc4ccccc4)nn3c2=O)c2ccccc21,-0.2,1.1%,6.9%,5.97µM*,0.5%,2.8%,-24.8
CCN(CC(=O)Nc1c(F)cccc1F)C(=O)c1cccc(-n2cccc2)c1,1.3,-19.6%,9.8%,?,-1.1%,-4.0%,-67.7*
CCOc1ccc(C2C(C#N)=C(N)Oc3cc(C)n(CCN(C)C)c(=O)c32)cc1OCC (stereo not given),-2.1,7.8%,3.2%,-8.0%,-1.1%,-5.8%[57.1 µM],-3.5
Cc1ccc(NC(=O)CN2C(=O)N/C(=C\c3cccnc3)C2=O)cc1,1.8,-16.6%,-11.2%,0.6%,2.3%,17.5%,-2.0

# The whole of this part (from the top)
SMILES,CCT modulator,EPAC1 antagonist,EPAC1 ag,PLK1 PBD inh,MmCpn inh,EPAC2 antag,PI5P4K alpha inh
NC(=O)CN1C(=O)/C(=c2\sc3nc(=O)c(Cc4ccccc4)nn3c2=O)c2ccccc21,-0.2,1.1%,6.9%,5.97µM*,0.5%,2.8%,-24.8
CCN(CC(=O)Nc1c(F)cccc1F)C(=O)c1cccc(-n2cccc2)c1,1.3,-19.6%,9.8%,?,-1.1%,-4.0%,-67.7*
CCOc1ccc(C2C(C#N)=C(N)Oc3cc(C)n(CCN(C)C)c(=O)c32)cc1OCC (stereo not given),-2.1,7.8%,3.2%,-8.0%,-1.1%,-5.8%[57.1 µM],-3.5
Cc1ccc(NC(=O)CN2C(=O)N/C(=C\c3cccnc3)C2=O)cc1,1.8,-16.6%,-11.2%,0.6%,2.3%,17.5%,-2.0
O=C(Nc1cccc(/C=C/c2nc3ccccc3c(=O)[nH]2)c1)c1ccccc1Cl,-7.9,-11.2%,1.2%,-4.9%,-1.3%,?,-7.2
CCCc1nnc(-c2ccc(OC)cc2)o1,0.2,-5.6%,-3.4%,0.1%,0.0%,11.9%,-3.9
Cn1c(CC(=O)NNC(=O)c2ccccc2[N+](=O)[O-])nc2ccccc21,-1.2,-10.4%,2.5%,-3.0%,1.9%,-2.5%,1.9
Nc1ccc(-c2cc(NC=O)c3ncc(-c4cccc(C(F)(F)F)c4)n3c2)cn1,-1.0,-22.0%,-29.2%,-7.1%,nt,-13.0%,-55.0*
CCCN1C(=O)C(O)(c2c(C)[nH]c3ccccc23)c2ccccc21 (stereo not given),1.6,8.1%,2.1%,-4.8%,-0.2%,0.5%,3.5
CCNC(=S)N/N=C/c1ccc(OCCOc2ccccc2C)cc1,-3.6,3.2%,5.3%,-5.5%,-2.6%,5.2%,nt
C=CCNCCCOc1ccc(Cl)cc1C(C)(C)C,-2.2,2.4%,-15.9%,-1.9%,-6.0%,-2.9%,25.1
CC1CN(C(=O)COc2ccc3ccccc3c2)CC(C)O1 (stereo not given),-1.4,0.4%,0.2%,-0.2%,0.6%,8.2%,2.6
Cc1ccc2nc(NCc3ccccc3)c(C=NCc3ccccc3)c(=O)n2c1,-0.9,-11.2%,9.8%,-7.3%,0.1%,-15.2%,-1.1
O=C(CCNC(=O)c1ccc([N+](=O)[O-])cc1)Nc1nc2ccccc2[nH]1,-1.6,9.6%,-1.5%,-7.3%,-2.6%,2.0%,3.8
Cn1nc(C(C)(C)C)cc1C(=O)N1CCCC(C)(C(=O)NS(=O)(=O)C2CC2)C1 (stereo not given),-6.2,10.8%,-1.9%,4.0%,nt,11.3%,0.9
O=S(=O)(Nc1nc2ccccc2[nH]1)c1ccccc1,1.0,13.6%,0.2%,-4.5%,-0.3%,4.6%[57.1 µM],-1.3
Cc1cc(C(=O)CCC(=O)Nc2cccc(F)c2)c(C)s1,-0.5,1.7%,6.8%,9.3%,nt,-12.2%,-0.9
CN(CC(=O)Nc1cc(Cl)ccc1Cl)C1CCS(=O)(=O)C1 (stereo not given),-0.1,-9.3%,2.0%,3.3%,-2.0%,5.7%,0.4
Cn1c(CC(=O)NNC(=O)c2ccccc2F)nc2ccccc21,0.6,-4.9%,-0.4%,5.8%,0.7%,9.8%,0.0
CC(Sc1ccc(Cl)cc1)C(=O)NNC(=O)c1ccco1 (stereo not given),1.7,-1.3%,6.1%,-2.1%,-2.0%,-0.4%,4.5
O=C(CSc1ccccc1)Nc1cccc(NC(=O)c2ccco2)c1,-3.2,-3.2%,10.3%,-8.1%,0.5%,-0.1%,nt
Cc1cc(NC(=O)c2noc3c2CCCCC3)no1,-3.8,1.8%,1.0%,0.0%,1.1%,0.8%,nt
COc1cc(Cl)c(C)cc1NC(=O)CN(C)C1CCS(=O)(=O)C1 (stereo not given),-0.9,-14.4%,-4.4%,-18.1%,-1.8%,-3.1%,-0.3
COc1ccc(-c2cc(NC=O)c3ncc(-c4ccc(C(C)=O)cc4)n3c2)cc1OC,-1.2,-4.4%,-7.8%,-7.4%,nt,0.4%,?
Cc1ccc(-n2nnnc2-c2ccccc2)cc1,0.8,-1.0%,-0.5%,-14.5%,-0.4%,-0.7%,-4.1
COc1ccc(CC2(CO)CCN(S(=O)(=O)c3sccc3C)CC2)cc1,0.5,-12.1%,-4.6%,-3.4%,-3.4%,0.1%,6.2
CCOC(=O)c1sc(NC(=O)CSc2ccccn2)c(C#N)c1C,1.9,11.4%,-2.7%,-2.9%,nt,8.3%,nt
CC(C)c1cccc(C(C)C)c1NC(=O)CN(C)C1CCS(=O)(=O)C1 (stereo not given),-22.2,1.8%,-8.6%,2.3%,2.0%,5.9%,-3.6
Cc1ccc(NC(=O)CN2C(=O)S/C(=C\c3cccn3-c3cccc(C(=O)O)c3)C2=O)cc1C,-2.2,?,14.5%,?,?,-0.3%,?
CC(C)Oc1ccc(-c2nc(NCC3CCCO3)c3ccccc3n2)cc1 (stereo not given),-1.6,-5.6%,25.7%,-14.0%,-1.5%,-14.2%,5.8
O=C(NCc1ccc(F)cc1)c1noc2c1CCCCC2,1.1,11.6%,-0.8%,-0.9%,2.6%,0.5%,nt
COc1cccc(CC(=O)N2CCN(S(=O)(=O)c3ccc(Br)cc3)CC2)c1,-0.1,-2.1%,-7.2%,-1.5%,0.2%,-6.7%,3.4
O=C(c1ccccc1)c1c2c(cc3sc4ccccc4[n+]13)-c1cccc3cccc-2c13,3.1,18.3%,-2.8%,?,-4.3%,-3.0%,-21.5
COc1ccc(-c2nnc(-c3ccc(OCC(C)C)cc3)o2)cc1,1.8,10.9%,3.5%,-4.2%,0.7%,12.0%,nt
Cc1ccc(-n2nnnc2C(Cl)(Cl)c2nnnn2-c2ccc(C)cc2)cc1,-0.9,1.1%,6.4%,1.06µM*,0.9%,0.6%,nt
CC(C)N1CCc2c(sc(NC(=S)NC(=O)c3ccccc3)c2C#N)C1,-1.2,-14.0%,-2.6%,?,-3.6%,0.9%,-51.3*
COc1ccc(C(=O)Nc2cc3c(oc2=O)CCCC3=O)cc1,-1.3,-6.6%,-7.5%,-23.1%,-1.2%,2.9%,-26.8
CCOc1ccc(C2C(C#N)=C(N)Oc3cc(C)n(Cc4ccco4)c(=O)c32)cc1OC (stereo not given),-2.7,9.7%,2.2%,-2.4%,-2.3%,-3.5%,-1.4
O=C(CSc1nc2nc(-c3cccs3)cc(C(F)(F)F)c2c(=O)[nH]1)NCc1ccco1,0.5,-29.8%,-4.2%,?,?,15.8%,?
O=C(CSCc1ccc(Br)cc1)N1CCOCC1,-0.7,-2.3%,-2.1%,-4.9%,0.6%,2.3%,nt
CCOC(=O)/C(=N\Nc1ccccc1Cl)N(C)C1CCS(=O)(=O)C1 (stereo not given),4.1,-5.4%,-3.1%,-10.9%,0.0%,-14.5%,-2.1
CCOC(=O)c1sc(NC(=O)CSc2nccc(C)n2)c(C#N)c1C,0.2,6.9%,-0.4%,-1.0%,-11.1%,-2.0%,0.6
O=C(O)c1ccc(/C=C2\CCCc3c2nc2ccccc2c3C(=O)O)cc1,-0.5,24.8%,4.2%,-6.8%,?,16.3%,-12.9
O=C(CSc1nc2nc(-c3cccs3)cc(C(F)(F)F)c2c(=O)[nH]1)C(F)(F)F,0.6,-8.6%,0.2%,?,-9.5%,-4.0%,?
COc1cccc(-c2cnc3c(NC=O)cc(-c4ccoc4)cn23)c1,-0.7,-12.7%,1.3%,-23.3%,nt,4.9%,?
CC(C)(C)c1ccc(C(=O)NC(=S)Nc2sc3c(c2C#N)CCC3)cc1,0.3,-7.1%,5.2%,?,-6.1%,1.0%,-14.1
O=C(CSc1nncs1)NNC(=O)c1ccco1,2.4,-10.5%,11.1%,-5.3%,-7.7%,2.4%,-0.3
COc1cc(/C=C(\C#N)c2nc3ccccc3[nH]2)cc(Br)c1OCc1ccccc1,-2.7,-12.0%,3.0%,-7.4%,0.0%,0.0%,-3.7
Cc1[nH]c2ccccc2c1C1(O)C(=O)N(Cc2ccc3c(c2)OCO3)c2ccccc21 (stereo not given),1.9,-17.8%,-21.0%,-19.2%,4.2%,-1.7%,-20.8
Cc1cc(C(=O)CCC(=O)Nc2ccc(S(N)(=O)=O)cc2)c(C)s1,0.0,-10.3%,5.6%,-19.1%,-7.9%,9.4%,0.4
O=C(CCN1CCOCC1)c1ccc(Cl)cc1,-4.9,-11.7%,2.7%,21.2µM*,0.7%,-4.4%,2.4
Cc1cc2nc3s/c(=C/c4ccc(-c5ccccc5C(=O)O)o4)c(=O)n3c2cc1C,-1.6,7.9%,9.6%,?,2.9%,-17.6%,-86.3*
COc1ccc(C2C(C#N)=C(N)Oc3cc(C)n(Cc4ccco4)c(=O)c32)cc1 (stereo not given),-0.7,2.9%,1.5%,-28.4%,-1.5%,7.1%,-13.3
CC(=O)N(CCC(c1ccccc1)c1ccco1)Cc1cccs1 (stereo not given),1.9,5.3%,-0.2%,-13.6%,?,-20.4%,-14.6
O=C(COc1ccc2ccccc2c1)N1CCNCC1,2.8,4.0%,-5.2%,-10.5%,0.1%,3.7%,1.5
O=S(=O)(c1ccccc1)c1ccc(NCc2ccco2)cc1,-0.2,5.5%,5.2%,-1.5%,-2.0%,2.9%,nt
COc1cc(/C=C/C(=O)Nc2nc3ccc(S(=O)(=O)N(C)C)cc3s2)cc(OC)c1OC,-0.1,6.4%,-9.3%,-3.6%,-0.5%,3.6%,-1.5
CCSc1ccc(-c2cc(NC=O)c3ncc(-c4cccc(C(=O)N(C)C)c4)n3c2)cc1,0.2,-6.1%,9.4%,?,nt,-15.2%,-25.0
COc1ccc(-c2nnc(-c3ccc(N(C)C)cc3)o2)cc1,-2.9,4.9%,-2.5%,-8.2%,nt,-4.0%,nt
COc1ccc(S(=O)(=O)Nc2c(O)ccc3ccccc23)cc1OC,0.2,-14.2%,-3.2%,29.9µM*,nt,11.4%,-21.3
C=CCn1c(=S)[nH]c2scc(-c3cccs3)c2c1=O,1.3,10.1%,-1.0%,-10.9%,50.1µM*,-11.7%,-24.0
Cc1cccc(NC(=O)CN2C(=O)CNC2=O)c1,-5.7,-5.5%,-1.4%,-4.8%,2.5%,6.5%,-5.5

# Bioassay records from PubChem BioAssay.

# These rows are one share of the data; count on the stated rates, not on these rows.
